RanGTP-Imp inh – inhibitors of RanGTP-importin-beta interaction, primary screen, biochemical, FRET, CFP-Ran, YFP-importin-beta, homogeneous; Ran GTPase (GTP-bound) - importin-beta complex; cell-free CFP-Ran/YFP-importin-beta FRET ratio; actives 1.1% (n = 300,000); inhibition, % (no concentration beside the values); AID 2216, 2009;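 active means most replicates above 15%; inconclusive means exactly half above 15%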;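 further: 0% = DMSO wells and 100% = Ran loaded with GDP instead of GTP; wells of about 40 µL received 100 nL stock; the first replicate is given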
Calb FLC – C. albicans growth inhibition with fluconazole, primary screen, CaCi-2 strain, Alamar Blue fluorescence. actives 0.57% (n = 300,000). C. albicans CaCi-2 (fluconazole-resistant clinical isolate) + fluconazole, 48 h. growth inhibition, % (no concentration beside the values);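 active means most replicates above 75%; inconclusive means exactly half above 75%; inactive means most below 75%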;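 further: all wells also contain fluconazole at 8 µg/ml as a sub-toxic cotreatment; 0% = median of DMSO wells and 100% = median of geldanamycin control wells; wells of about 8 µL received 7.5 nL stock; the first replicate is given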
LANA-H2A inh – blockers of LANA interaction with H2A/H2B – biochemical, FP readout, HTS, primary screen | cell-free LANA-H2A/H2B peptide, fluorescence polarization | inhibition, % (concentration not given with the values) | actives 0.6% (n = 320,000) | AID 2629, 2010; in the data active means inhibition mostly above about 10%, no sharp cut-off; inactive means mostly below about 6.7%;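 further: stock transfer was 7.5 nL into about 10 µL; 0% = median of vehicle wells and 100% = median of positive control wells; one replicate is shown; the record names a cut of 25% in any replicate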
Target sequence (Q9QR71 whole entry, looked up): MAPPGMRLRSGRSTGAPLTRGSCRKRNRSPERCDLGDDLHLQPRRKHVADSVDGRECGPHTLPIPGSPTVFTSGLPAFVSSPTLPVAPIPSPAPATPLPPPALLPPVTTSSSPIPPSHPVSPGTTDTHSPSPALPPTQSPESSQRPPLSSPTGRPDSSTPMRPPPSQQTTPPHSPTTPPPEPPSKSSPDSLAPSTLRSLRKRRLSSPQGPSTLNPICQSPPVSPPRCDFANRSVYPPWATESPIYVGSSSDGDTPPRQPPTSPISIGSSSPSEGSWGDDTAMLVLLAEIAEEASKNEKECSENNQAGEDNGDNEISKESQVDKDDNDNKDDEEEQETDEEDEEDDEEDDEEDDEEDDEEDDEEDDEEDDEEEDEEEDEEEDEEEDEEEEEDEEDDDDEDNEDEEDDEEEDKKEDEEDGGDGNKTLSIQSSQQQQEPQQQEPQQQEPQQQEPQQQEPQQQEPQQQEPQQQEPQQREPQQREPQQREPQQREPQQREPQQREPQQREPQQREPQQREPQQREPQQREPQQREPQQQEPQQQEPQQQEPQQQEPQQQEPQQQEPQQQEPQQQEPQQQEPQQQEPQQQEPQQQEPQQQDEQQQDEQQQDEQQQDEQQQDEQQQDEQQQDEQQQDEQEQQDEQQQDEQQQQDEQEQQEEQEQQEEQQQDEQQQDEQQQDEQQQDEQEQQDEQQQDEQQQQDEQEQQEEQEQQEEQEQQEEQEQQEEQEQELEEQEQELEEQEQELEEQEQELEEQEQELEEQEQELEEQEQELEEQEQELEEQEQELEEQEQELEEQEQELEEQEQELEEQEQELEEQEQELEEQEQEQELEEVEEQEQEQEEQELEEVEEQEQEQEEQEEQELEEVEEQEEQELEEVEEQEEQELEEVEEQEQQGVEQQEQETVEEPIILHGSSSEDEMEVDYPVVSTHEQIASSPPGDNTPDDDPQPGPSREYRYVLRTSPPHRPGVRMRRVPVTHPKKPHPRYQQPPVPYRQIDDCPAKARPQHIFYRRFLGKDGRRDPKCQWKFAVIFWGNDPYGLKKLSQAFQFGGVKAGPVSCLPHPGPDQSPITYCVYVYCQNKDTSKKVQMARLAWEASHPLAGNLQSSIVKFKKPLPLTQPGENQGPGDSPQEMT
Beta apoptosis – inhibitors of cytokine-induced beta cell apoptosis, primary screen, luminescence | INS-1E cytokine-induced death, ATP luminescence, 48 h; percent of positive-control rescue, neutral wells zero | protection from apoptosis, % (no concentration beside the values) | actives 0.8% (n = 300,000) | AID 435005, 2010;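 active means all replicates at 75% or more, or half of them and the mean; inconclusive means half reach 75% but not the mean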;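 further: 0% = cytokine-treated negative control wells and 100% = positive control rescue; higher means more ATP so stronger rescue from cytokine killing; wells of about 40 µL received 100 nL stock; the first replicate is given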
T cruzi inh – inhibitors of intracellular T. cruzi growth, primary screen, luminescence, NIH3T3 host cells | T. cruzi beta-gal in NIH3T3, 90 h | inhibition, % (test concentration not listed) | actives 1.4% (n = 300,000);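 active means mean inhibition across valid replicates above about 55%, limit read from the data; inconclusive means mean below that limit but half or more replicates reach it; inactive means mean below it, under half of replicates reach it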;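 further: signal also drops with host cell toxicity which is not excluded here; 0% = plate median of DMSO wells and 100% = zero luminescence signal; higher percent means less beta-gal luminescence so fewer parasites; stock transfer was 50 nL into about 50 µL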
A1 inh – caspase 3/7 activation in MEF A1-2A-BIM cells, primary screen, A1 inhibitor project, cell-based, luminescence, HTS | actives 0.066% (n = 330,000) | AID 2462, 2010 | Caspase-Glo 3/7 luminescence, 3 h; percent of clofoctol response, vehicle zero | caspase activation, % (no concentration beside the values);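 active means over half of replicate activation scores above 10%, or exactly half above 10 with the replicate mean above 10; inconclusive means replicate mean below 10 yet half the replicates above 10; inactive means over half of replicates below 10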;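 further: wells of about 30 µL received 50 nL stock; many hits fall short of the cut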
AF4-AF9 inh – inhibitors of AF4 peptide binding to AF9, primary screen, biochemical, AlphaScreen, biotin-AF4 peptide, FLAG-AF9, single point. Protein AF-9 (Homo sapiens), P42568. inhibition, % at 10 µM. actives 0.47% (n = 350,000). AID 651704, 2012;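 active means every replicate reaching a set inhibition limit, whatever the replicate mean, cut at about 25% in these data; inconclusive means mean inhibition reaches that limit but some replicates miss it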;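 further: 0% = plate neutral control median and 100% = total signal loss; the record names both 10 and 1 µM as test concentration; the first replicate is given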
Vif A3G – inhibitors of Vif binding to APOBEC3G peptide, primary screen, biochemical, TR-FRET, GST-Vif 1-94, biotin-A3G peptide, dose response retest (AID 1117319). Virion infectivity factor (Human immunodeficiency virus type 1 group M subtype B (isolate …. TR-FRET GST-Vif / biotin-A3G peptide binding; higher % means a stronger effect; test concentration not given here; strong numbers were not always called active. inhibition, %, or IC50 in µM where a hit was titrated. actives 0.57% (n = 260,000);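 active means above the screen mean plus three standard deviations and confirmed in dose response; inconclusive means results disagree or hit not tested in dose response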;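 further: Vif residues 1-94 fused to GST binding biotinylated APOBEC3G peptide 110-148; 0% = full assay without inhibitor and 100% = GST in place of GST-Vif; retest series ran down from 100 µM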
An asterisk follows results filed as active.

`O=C(CSc1nc2ccc([N+](=O)[O-])cc2s1)NC1CCS(=O)(=O)C1` (stereo not given) gave RanGTP-Imp inh 2.3, Calb FLC 2, LANA-H2A inh -0.3, Beta apoptosis 3, T cruzi inh 9, A1 inh 0.3, AF4-AF9 inh -0.8 and Vif A3G 6%.
COC(=O)C1=C(C)N(Cc2ccc(OC)cc2)C(=O)C1 was read as RanGTP-Imp inh 3.3, Calb FLC -2, LANA-H2A inh -2.1, Beta apoptosis -3, T cruzi inh -4, A1 inh -0.1, AF4-AF9 inh -5.0 and Vif A3G inconclusive.
For COC(=O)c1c(NC(=O)c2cccs2)sc2c1CCC(C)C2 (stereo not given) the results were RanGTP-Imp inh 0.0, Calb FLC -5, LANA-H2A inh 0.7, Beta apoptosis 6, T cruzi inh 37, A1 inh 1.0 and Vif A3G -6%.
`CCn1c(=O)c(C(=O)Nc2ncccc2O)c(O)c2ccccc21` gave RanGTP-Imp inh -4.4, Calb FLC 32, LANA-H2A inh -0.3, Beta apoptosis -1, T cruzi inh -2, A1 inh 0.8 and AF4-AF9 inh -1.5.
`Cc1ccc(NC(=O)CCOc2ccccc2C)cc1F` gave RanGTP-Imp inh -2.9, Calb FLC 6, LANA-H2A inh -1.6, Beta apoptosis 0, T cruzi inh 8, A1 inh 0.8, AF4-AF9 inh -3.8 and Vif A3G -2%.
For CCOc1ccccc1OCCCCCc1c(C)n[nH]c1C the results were RanGTP-Imp inh -1.1, Calb FLC 10, LANA-H2A inh 0.3, Beta apoptosis 2, T cruzi inh -13, A1 inh -0.4 and Vif A3G 24%.
`O=C(CS(=O)(=O)c1ccccc1)Nc1nc(-c2ccccc2)cs1` gave RanGTP-Imp inh 3.3, Calb FLC -11, LANA-H2A inh -9.3, Beta apoptosis 1, T cruzi inh 9, A1 inh 0.0 and Vif A3G 5%.
Screening COc1ccc(Cl)cc1NC(=O)C(C)Sc1n[nH]c(N)n1 (stereo not given) returned RanGTP-Imp inh 1.7, Calb FLC 5, LANA-H2A inh -0.9, Beta apoptosis -3, T cruzi inh -5, A1 inh -0.1 and Vif A3G -4%.
Cc1nc(C(C)NC(=O)c2cc(COc3ccc(F)c(F)c3)on2)cs1 (stereo not given) was read as RanGTP-Imp inh 0.0, Calb FLC -8, LANA-H2A inh -1.1, Beta apoptosis 1, T cruzi inh 9, A1 inh -1.8, AF4-AF9 inh -1.1 and Vif A3G 2%.
For CCOc1ccccc1OCC(=O)Nc1ccc(OC)c(S(=O)(=O)N2CCCCC2)c1 the results were RanGTP-Imp inh 4.1, Calb FLC 7, LANA-H2A inh -0.3, Beta apoptosis 7, T cruzi inh 22, A1 inh -0.7, AF4-AF9 inh 1.3 and Vif A3G 2%.
COc1ccc(-n2nc(C(=O)NCC(=O)N3CCN(Cc4ccccc4)CC3)c3ccccc3c2=O)cc1OC was read as RanGTP-Imp inh 3.8, Calb FLC 24, LANA-H2A inh -2.3, Beta apoptosis 3, T cruzi inh 0, A1 inh 0.5 and AF4-AF9 inh 2.6.
`CCN1CCN(CCCNC(=O)c2ccccc2NC(=O)C2=C(C)OCCS2)CC1` gave RanGTP-Imp inh inconclusive, Calb FLC 10, LANA-H2A inh -3.8, Beta apoptosis -9, T cruzi inh 4, A1 inh -0.8, AF4-AF9 inh 0.4 and Vif A3G 5%.
`CN(C)S(=O)(=O)c1cccc(NC(=O)COC(=O)CCSc2ccc(Cl)cc2)c1` gave RanGTP-Imp inh -0.1, Calb FLC 15, LANA-H2A inh -10, Beta apoptosis -4, T cruzi inh -2 and A1 inh 0.9.
O=C(CN1CCN(S(=O)(=O)c2ccc(Br)cc2)CC1)N/N=C/c1cccs1 was read as RanGTP-Imp inh -3.1, Calb FLC -4, LANA-H2A inh 4.6, Beta apoptosis 4, T cruzi inh -23 and A1 inh -0.4.
For COc1ccc(CCC(=O)NC(C)C2CCCO2)cc1 (stereo not given) the results were RanGTP-Imp inh 3.1, Calb FLC -4, LANA-H2A inh 4.0, Beta apoptosis -1, T cruzi inh -7, A1 inh 0.6 and AF4-AF9 inh -3.0.
Screening O=C(O)C1CCC(=O)N1C(=O)OCc1ccccc1 (stereo not given) returned RanGTP-Imp inh -0.2, LANA-H2A inh 2.7, Beta apoptosis -7, T cruzi inh -11, A1 inh 0.3 and AF4-AF9 inh -0.2.
For CCCCOCCCNC(=O)/C=C/c1ccccc1Cl the results were RanGTP-Imp inh -2.1, Calb FLC 3, LANA-H2A inh 2.9, Beta apoptosis -2, T cruzi inh -6, A1 inh 0.8 and Vif A3G 2%.
COc1cccc(NC(=O)NNC(=O)CCc2ccc(O)c(O)c2)c1 was read as RanGTP-Imp inh 0.6, Calb FLC -28, LANA-H2A inh 3.1, Beta apoptosis -4, T cruzi inh -24, A1 inh 0.1, AF4-AF9 inh -1.7 and Vif A3G 6%.
For CCc1ccccc1NC(=S)N(CCc1ccncc1)C(C)C the results were RanGTP-Imp inh 2.7, Calb FLC -6, LANA-H2A inh -1.5, Beta apoptosis -2, T cruzi inh -13, A1 inh -0.3, AF4-AF9 inh 0.6 and Vif A3G 5%.
Screening COc1cccc(OC(=O)N2CCOCC2)c1 returned RanGTP-Imp inh 1.5, Calb FLC -6, LANA-H2A inh -1.1, Beta apoptosis -8, T cruzi inh -6, A1 inh -0.4, AF4-AF9 inh -2.8 and Vif A3G 13%.
For CCOC(=O)N1CCC(NC(=O)c2ccc(NC(=O)C3CCCO3)cc2)CC1 (stereo not given) the results were RanGTP-Imp inh -1.7, Calb FLC -12, LANA-H2A inh 0.1, Beta apoptosis 1, T cruzi inh 0, A1 inh 0.0 and Vif A3G 0%.
`O=C(Nc1nnc(C2CC2)s1)C1Cc2ccccc2CN1C(=O)c1ccco1` (stereo not given) gave RanGTP-Imp inh 0.6, Calb FLC 4, LANA-H2A inh -1.0, Beta apoptosis 1, T cruzi inh -11, A1 inh 0.8, AF4-AF9 inh 0.6 and Vif A3G 29%.
Screening CCc1c(C(=O)Nc2ccncc2)csc1C returned RanGTP-Imp inh 5.7, Calb FLC 26, LANA-H2A inh 6.1, Beta apoptosis 23, T cruzi inh -13, A1 inh 0.9 and Vif A3G 1%.
For Cc1nn(Cc2nnc(SCC(=O)Nc3ccc(Cl)cc3)n2C)c(C)c1[N+](=O)[O-] the results were RanGTP-Imp inh -1.6, Calb FLC -6, LANA-H2A inh -6.3, Beta apoptosis -6, T cruzi inh 18, A1 inh 1.2, AF4-AF9 inh -3.9 and Vif A3G -10%.
COc1ccc(/C=C(\NC(=O)c2ccc([N+](=O)[O-])cc2)C(=O)N2CCOCC2)cc1 was read as RanGTP-Imp inh 4.0, Calb FLC -2, LANA-H2A inh 3.6, Beta apoptosis -3, T cruzi inh -4, A1 inh -0.4, AF4-AF9 inh 0.2 and Vif A3G 10%.
Screening O=C(NCc1ccccc1)C1C2C=CC3(CN(Cc4cccnc4)C(=O)C13)O2 (stereo not given) returned RanGTP-Imp inh 7.1, Calb FLC -10, LANA-H2A inh 1.8, Beta apoptosis -6, T cruzi inh -3, A1 inh -0.5 and Vif A3G -1%.
For COc1ccc(S(=O)(=O)Nc2nncs2)cc1 the results were RanGTP-Imp inh -2.8, Calb FLC -4, LANA-H2A inh 1.5, Beta apoptosis 1, T cruzi inh -6, A1 inh 0.4 and Vif A3G 25%.
`CCCCc1nnc(NC(=O)CSCc2cc(=O)n3c(C)csc3n2)s1` gave RanGTP-Imp inh -2.7, Calb FLC 7, LANA-H2A inh 2.2, Beta apoptosis -4, T cruzi inh -9, A1 inh -2.1, AF4-AF9 inh -0.9 and Vif A3G -8%.
`COc1ccc(CNC(=O)[C@H](C)NC(=O)C2CCN(C(=O)[C@@H](N)Cc3ccccc3)CC2)cc1` gave RanGTP-Imp inh 2.2, Calb FLC 3, LANA-H2A inh 0.3, Beta apoptosis -6, T cruzi inh -26, A1 inh 0.2 and AF4-AF9 inh 6.3.
`CCSC(=Nc1ccccc1)Nc1ccccc1` gave RanGTP-Imp inh -1.7, Calb FLC -4, LANA-H2A inh -2.1, T cruzi inh -7, A1 inh -1.1 and AF4-AF9 inh -0.4.
Oc1c(Br)cc(Br)cc1CNc1nccs1 was read as RanGTP-Imp inh 2.4, Calb FLC 6, LANA-H2A inh -1.2, Beta apoptosis -6, T cruzi inh -3, A1 inh 1.1, AF4-AF9 inh 0.4 and Vif A3G -10%.
For O=C(NNC(=O)C1CC=CCC1)c1ccccc1O (stereo not given) the results were RanGTP-Imp inh 2.9, Calb FLC -8, LANA-H2A inh -3.0, Beta apoptosis -1, T cruzi inh -9, A1 inh -0.3, AF4-AF9 inh 3.4 and Vif A3G 0%.
For CCCCn1nnnc1NCc1cc(OC)c(OC)cc1OC the results were RanGTP-Imp inh 1.1, Calb FLC -11, LANA-H2A inh 2.5, Beta apoptosis 4, T cruzi inh -11, A1 inh -0.1 and Vif A3G 6%.
`CCOC(=O)N1CCC(NC(=O)c2ccc(CO)c(C(=O)NC3CCN(C(=O)OCC)CC3)c2)CC1` gave RanGTP-Imp inh 5.1, Calb FLC -3, LANA-H2A inh -2.1, Beta apoptosis -3, T cruzi inh 11, A1 inh 1.6, AF4-AF9 inh -2.8 and Vif A3G 3%.
Screening O=C(COC(=O)c1ccc(Br)o1)NC1CCCCC1 returned RanGTP-Imp inh -3.0, Calb FLC -12, LANA-H2A inh -2.4, Beta apoptosis -1, T cruzi inh 3, A1 inh -0.3 and AF4-AF9 inh -1.1.
CCn1ncc(/C=N/NS(=O)(=O)c2ccc(Cl)cc2)c1C was read as RanGTP-Imp inh -1.5, Calb FLC 3, LANA-H2A inh -3.4, Beta apoptosis 1, T cruzi inh 2, A1 inh -0.3 and Vif A3G 69%.
For COc1cccc(OCc2nc3ccccc3c(=O)n2N)c1 the results were Calb FLC 108*, LANA-H2A inh 3.4, Beta apoptosis -8, T cruzi inh -6, A1 inh -3.4, AF4-AF9 inh 1.5 and Vif A3G 5%.
Screening COc1ccc(OC)c2c1cc(C(=O)N[C@H](C(=O)N1CCC[C@H]1C(=O)O)C(C)C)n2C returned RanGTP-Imp inh 5.1, Calb FLC 0, LANA-H2A inh -4.9, Beta apoptosis -1, T cruzi inh -12, A1 inh -1.0 and AF4-AF9 inh -3.4.
COc1ccccc1OCC(=O)N1CCC2(CC1)CC(=O)c1ccccc1O2 was read as RanGTP-Imp inh -0.3, Calb FLC 5, LANA-H2A inh 11, Beta apoptosis 0, T cruzi inh 2, A1 inh 0.0, AF4-AF9 inh -4.2 and Vif A3G -1%.
